# gsp antagonist – antagonists of gsp mutant (McCune-Albright syndrome) | gsp-mutant cells, cAMP HTRF, 30 min; control for the full effect not named in the record | actives 0.4% (n = 340,000) | Potency, µM (doses to about 76.9 µM), inactives show at the highest dose activity change, negative = inhibition, hits mostly inhibitors; active = falling curve of any shape with a large fitted effect; inconclusive = falling curve, mostly with a smaller effect; inactive = flat or rising curve; cell line not stated here;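 note: intracellular cAMP measured with PDE inhibitor Ro 20-1724 present during compound exposure; potency is the fitted concentration of half-maximal effect; % is set by controls: 0 for no effect and ±100 for the full control effect; nearly all actives have a fitted effect of over 65% in size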
#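 Measurement of cellular cAMP by homogeneous time-resolved fluorescence following a 30 min compound exposure at 37C. The PDE inhibitor […] was present throughout; the assay buffer was DPBS with 0.05% BSA and 0.005% Tween 20.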
# gsp ag – gsp mutant agonism. gsp mutant cells, cAMP HTRF, 30 min; control for the full effect not named in the record. Potency, µM (top dose mostly 76.9 µM), without a hit: at the top dose activation (cAMP increase), usual class: activators. actives 0.13% (n = 340,000). AID 624287; active = well fitted activation curve with a large enough effect; inconclusive = small, poorly fitted or top-dose-only effect, or another doubt; inactive = no such curve, though single readings can be large or run the other way; cell line not stated here;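 note: phosphodiesterase inhibitor Ro 20-1724 added with compounds to block cAMP breakdown; potency is the fitted concentration of half-maximal effect; nearly all actives have a fitted effect of over 60% in size; about a fifth of the inactives were tested at one dose only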
#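 Cells in DMEM/10% FBS with G418 were pretreated with compounds in DMSO plus […] (300 uM stock) for 30 min at 37C. cAMP was measured by HTRF (cAMP-d2 plus anti-cAMP antibody-K) after 30 min at room temperature.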
# CtBP-E1A inh – blocks the CtBP interaction with E1A; AlphaScreen GST-E1A/His-CtBP binding, 1536-well; hits give low values; control for the full effect not named in the record; activity change, % (test concentration not listed); actives 0.49% (n = 340,000); AID 651724; in the data active means activity change below about -65%; inconclusive means about -30% to -65%; inactive means above about -30%; note: % is set by controls: 0 for no effect and ±100 for the full control effect; compound concentration not given in the record
#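 Homogeneous bead-based format: GST-tagged E1A captured on glutathione donor beads, His-tagged CtBP on nickel acceptor beads; compounds precede bead addition by 2 h at 37 °C.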
# D2 potentiator – human D2 receptor positive allosteric modulation; P14416; DiscoveRx D2 beta-arrestin cells, luminescence, 90 min; 100% = 57 uM dopamine signal; potentiation, % (test concentration not listed); actives 0.23% (n = 360,000); AID 624464; active = potentiation of 50% or more; inconclusive = 30% to 50%; inactive = 30% or less;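 note: compound concentration not given in the record; tested on top of an EC20 dose of dopamine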
#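 PathHunter beta-arrestin assay in DiscoveRx D2 cells. Compounds were added with an EC20 of dopamine (50 nM final) for 90 min at 37 deg C. Luminescence was read 1 h after detection reagent, with 57 uM dopamine as the EC100 control.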
# D2 ag – agonists of human D2 dopamine receptor (beta-arrestin). P14416. DiscoveRx PathHunter D2 beta-arrestin, luminescence, 90 min; 100% = 57 uM dopamine signal. activation, % (test concentration not listed). actives 0.084% (n = 360,000). AID 624465; in the data active = activation above about 40%; inconclusive = about 15% to 40%; inactive = below about 15%; note: compound concentration not given in the record; the text of the record calls up to 30% inactive
#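 Agonist mode: compounds alone added to overnight-plated D2 PathHunter cells for 90 min at 37 C, with 57 uM final dopamine (EC100) defining full response. Beta-arrestin recruitment detected by chemiluminescent reagent, read after 1 h at ambient temperature.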
# Six1-Eya2 inh – blocks human Six1 binding to Eya2 | Q15475+O00167 | AlphaScreen GST-Six1/His-Eya2 binding, biochemical; hits give low values; control for the full effect not named in the record | activity change, % (no concentration beside the values) | actives 0.56% (n = 360,000); in the data active = activity change below about -65%; inconclusive = about -30% to -65%; inactive = above about -30%; note: % is set by controls: 0 for no effect and ±100 for the full control effect; compound concentration not given in the record
# Target sequence (O00167 whole entry, looked up): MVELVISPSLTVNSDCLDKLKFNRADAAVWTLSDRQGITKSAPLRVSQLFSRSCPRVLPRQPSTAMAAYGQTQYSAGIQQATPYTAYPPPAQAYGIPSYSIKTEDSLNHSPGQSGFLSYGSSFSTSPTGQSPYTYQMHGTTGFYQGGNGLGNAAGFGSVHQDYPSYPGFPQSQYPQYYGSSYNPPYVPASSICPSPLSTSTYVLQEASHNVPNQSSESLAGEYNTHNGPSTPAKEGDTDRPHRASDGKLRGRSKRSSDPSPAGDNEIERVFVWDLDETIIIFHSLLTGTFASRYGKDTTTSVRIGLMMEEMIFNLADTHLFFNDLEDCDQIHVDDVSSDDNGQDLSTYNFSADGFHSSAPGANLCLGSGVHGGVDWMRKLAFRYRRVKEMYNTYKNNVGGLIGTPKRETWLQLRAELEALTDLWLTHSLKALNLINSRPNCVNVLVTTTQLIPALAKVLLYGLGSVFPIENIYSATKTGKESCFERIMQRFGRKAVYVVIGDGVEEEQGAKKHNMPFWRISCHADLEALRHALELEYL
# Target sequence (Q15475 whole entry, looked up): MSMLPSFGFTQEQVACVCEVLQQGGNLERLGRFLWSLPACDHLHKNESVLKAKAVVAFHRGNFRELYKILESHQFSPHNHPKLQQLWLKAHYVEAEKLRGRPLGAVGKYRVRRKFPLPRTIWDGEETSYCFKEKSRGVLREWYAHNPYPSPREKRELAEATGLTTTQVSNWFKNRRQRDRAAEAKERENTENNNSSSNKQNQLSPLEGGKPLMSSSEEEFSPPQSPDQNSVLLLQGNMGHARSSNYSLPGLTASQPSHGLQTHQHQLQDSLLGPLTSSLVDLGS
#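 Compounds are tested against tagged Six1 and Eya2 proteins bridged by glutathione donor and nickel acceptor beads; after a one-hour incubation at 37 °C without light, AlphaScreen emission is recorded.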
# * hit, by the source's call; ? = inconclusive; / = not tested or not shown; [ ] = dose if it differs, or a comment. Random draw from the library; about 1.4% have a hit in one of these screens.
1	COCCN(Cc1nnc(-c2cccs2)o1)C(=O)CN1C(=O)NC2(CCCCC2)C1=O
2	Cc1ccc2[nH]c(=O)c(CN(Cc3cccnc3)Cc3nnnn3CCN3CCOCC3)cc2c1
3	CCc1ccc(NC(=O)N2CCc3ccccc3C2)cc1
4	CCC1=NN2C(=N)/C(=C/c3ccc(OS(=O)(=O)c4ccccc4)cc3)C(=O)N=C2S1
5	CCOc1ccc(C2/C(=C(/O)c3ccc(S(=O)(=O)N4CCCCC4)cc3)C(=O)C(=O)N2CCCOC)cc1OC (stereo not drawn)
6	COC(=O)CSc1nnc(-c2cccnc2)n1-c1cccc(OC)c1
7	COc1ccc(Cl)cc1NC(=O)c1ccoc1C
8	O=C(OCC(=O)N1CCN(c2ccccc2)CC1)c1ccccn1

entry no.	1	2	3	4	5	6	7	8
gsp antagonist	10%	13%	-9%	?	6%	-17%	-6%	0%
gsp ag	11%	8%	17%	?	19%	-39%[inhibitor]	19%	-2%
CtBP-E1A inh	0	8	0	-12	3	4	-3	-18
D2 potentiator	-5	-4	-28	-9	-10	-10	0	1
D2 ag	0.0	-1.8	-5.4	0.0	-6.0	-0.2	-1.1	-2.0
Six1-Eya2 inh	-16	-1	-1	-18	-1	4	4	-1

9	CCCCC(=O)OCC(=O)c1[nH]c(C)c(C(C)=O)c1C
10	O=C(CCc1ccccc1)NCCCNC(=O)CCc1ccccc1
11	COCCNC(=O)C1(C)CCCN(Cc2ccc(OC)cc2)C1 (stereo not drawn)
12	O=C(CSc1cccc2cccc(Cl)c12)NCc1cccs1
13	C=CCN(C(=O)Nc1ccc(OC)cc1)c1nnc(-c2ccncc2)s1
14	COCCNC(=O)C1(C)CCCN(C(=O)c2cc(F)ccc2C)C1 (stereo not drawn)
15	CCSc1nnc(NC(=O)[C@H](C)N2C(=O)C3CC=CCC3C2=O)s1 (stereo partly drawn)
16	CCN(c1ccccc1)S(=O)(=O)c1ccc(Cl)c(C(=O)OCC(=O)c2[nH]c(C)c(C(C)=O)c2C)c1

entry no.	9	10	11	12	13	14	15	16
gsp antagonist	1%	12%	/	-13%	-10%	/	1%	-3%
gsp ag	12%	15%	/	-18%	-8%	/	8%	-3%
CtBP-E1A inh	-4	0	6	-22	-22	1	-1	-2
D2 potentiator	-13	-1	-1	-5	-1	-1	-9	-15
D2 ag	-2.5	-1.4	-3.2	-4.1	0.2	-5.8	-6.6	4.8
Six1-Eya2 inh	5	3	5	-6	-8	5	5	7

17	O=C(Cc1ccccc1[N+](=O)[O-])NCc1ccc2c(c1)OCO2
18	CC1(C)CC(=O)C2=C(C1)Nc1ncnn1C2c1ccccn1 (stereo not drawn)
19	CCOC(=O)CSc1nc2nc(Cl)c(Cl)nc2[nH]1
20	N#CCCNC(=O)Cn1c(COc2ccc(Cl)cc2)nc2ccccc21
21	O=C(OCC(=O)N1CCc2ccccc21)c1cccnc1
22	O=C(N/N=C/c1ccco1)c1cc(-c2ccccc2)n[nH]1
23	CCCCOc1ccc(CN2CCSCC2)cc1
24	CCCOc1ccc(-c2c(=O)n(OCC(=O)OCC)c3ccccc3[n+]2[O-])cc1

entry no.	17	18	19	20	21	22	23	24
gsp antagonist	16%	12%	/	-25%	-6%	0%	-10%	-3%
gsp ag	-15%	2%	?	-13%[15.4 µM]	5%	-14%	-3%	?
CtBP-E1A inh	-12	6	1	-23	4	-4	-8	/
D2 potentiator	-19	-1	1	-1	-9	-5	-5	9
D2 ag	-1.3	0.6	-0.2	3.0	-1.8	0.1	-4.6	0.8
Six1-Eya2 inh	-6	4	-5	27	2	-4	0	-1

25	COc1cccc(C2(O)CCN(CC(=O)NCC3CC3)CC2)c1
26	CCCCOc1ccc(-c2n[nH]c(=S)n2Cc2ccccc2)cc1
27	CSCc1c(C(=O)N2CCCc3ccccc32)oc2ccccc12
28	COC(=O)c1cccc(-n2cnnn2)c1
29	COc1ccc(-c2csc(NC(=O)c3cc(=O)c4ccccc4o3)n2)cc1OC
30	CSc1nc(C)nc(N/C=C(\C#N)S(=O)(=O)c2ccccc2Cl)n1
31	CCN(Cc1cc2ccccc2[nH]c1=O)C(=O)c1cccc([N+](=O)[O-])c1
32	COC(=O)C1=C(C)N(c2ccc(S(N)(=O)=O)cc2)C(=O)C1

entry no.	25	26	27	28	29	30	31	32
gsp antagonist	12%	-15%	-10%	2%	-4%	5%	5%	6%
gsp ag	20%[15.4 µM]	23%	-41%[inhibitor]	4%	-30%[inhibitor]	7%[15.4 µM]	-41%[inhibitor]	-6%
CtBP-E1A inh	-1	1	-20	-9	/	5	-3	-4
D2 potentiator	-13	-2	14	-14	30	0	-8	7
D2 ag	-4.2	6.7	-0.5	-4.1	4.9	-11	3.6	0.2
Six1-Eya2 inh	1	-3	-18	1	-3	7	0	11

33	COc1ccc(C(CNC(=O)c2ccc(OCC3CCCO3)cc2)N2CCOCC2)cc1 (stereo not drawn)
34	Cc1ccn2c(c1)nc(=O)c1cc(S(=O)(=O)N3CCCCC3)ccc12
35	Cc1ccccc1N(CC(=O)N1CCCCCC1)S(C)(=O)=O
36	COCc1ccc(C(=O)N2CCCC(CCC(=O)NCc3ccccc3F)C2)o1 (stereo not drawn)
37	CN1CCN(NC(=O)c2cccc(F)c2)CC1
38	NC(=N\N=Cc1ccccc1)/C(N)=N/N=Cc1ccccc1
39	CCCN1CCN(CCCNC(=O)c2ccc3nc(N4CCCCC4)sc3c2)CC1
40	O=C1C2C3C=CC(CC3)C2C(=O)N1/N=C/c1c[nH]c2ccccc12 (stereo not drawn)

entry no.	33	34	35	36	37	38	39	40
gsp antagonist	-3%	-10%	3%	12%	-2%	5%	8%	-3%
gsp ag	-23%	4%[15.4 µM]	?	-4%[15.4 µM]	19%	9%[15.4 µM]	0%	-12%[15.4 µM]
CtBP-E1A inh	3	-21	5	-19	-7	14	-24	0
D2 potentiator	-12	-7	-2	4	-19	-20	-7	-10
D2 ag	-1.6	-5.1	0.4	4.5	2.6	-3.7	-3.5	-1.3
Six1-Eya2 inh	6	-27	4	5	-12	3	13	-2

# Entries of single compounds, quoted from the list:
# Listed for COc1ccc(C(CNC(=O)c2ccc(OCC3CCCO3)cc2)N2CCOCC2)cc1 (stereo not drawn) = gsp antagonist = -3%; gsp ag = -23%; CtBP-E1A inh = 3; D2 potentiator = -12; D2 ag = -1.6; Six1-Eya2 inh = 6
# Listed for NC(=N\N=Cc1ccccc1)/C(N)=N/N=Cc1ccccc1 = gsp antagonist = 5%; gsp ag = 9%[15.4 µM]; CtBP-E1A inh = 14; D2 potentiator = -20; D2 ag = -3.7; Six1-Eya2 inh = 3

# Additional entries follow.
41	CN(C)/C=C/C1=C([N+](=O)[O-])C(c2cccc([N+](=O)[O-])c2)NC(=O)N1 (stereo not drawn)
42	C=CCc1ccc(OCC(O)CN2CCC(Cc3ccccc3)CC2)c(OC)c1 (stereo not drawn)
43	NC(=O)NOCc1c(F)cccc1Cl
44	COc1cccc(NC(=O)N2CCC(NC(=O)C3CCCCC3)CC2)c1
45	Cc1cc(=O)[nH]c(Nc2ccc(C(=O)OC(C)C)cc2)n1
46	O=C(/C=C/c1cn(-c2ccccc2)nc1-c1cccnc1)NCCN1CCOCC1
47	CCOC(=O)c1ccccc1NC(=O)CN1C(=O)NC(C)(CCc2ccccc2)C1=O (stereo not drawn)
48	CN(C)S(=O)(=O)c1ccc(Cl)c(NC(=O)COC(=O)[C@@H]2CCCN2C(=O)c2cccs2)c1

entry no.	41	42	43	44	45	46	47	48
gsp antagonist	1%	7%	-2%	2%	1%	-17%	-1%	-11%
gsp ag	3%[15.4 µM]	7%	1%	-7%	-6%	16%	?	-12%
CtBP-E1A inh	-8	-10	7	7	15	?	0	/
D2 potentiator	4	-8	3	-6	-14	-9	-1	-11
D2 ag	-1.9	0.5	1.7	-2.9	3.6	-3.5	1.8	6.2
Six1-Eya2 inh	-13	3	0	4	0	?	2	-1

49	CCCc1c(C)c2ccc(OCC(C)=O)cc2oc1=O
50	CCCOC(=O)/C(C)=N\NC(=O)c1ccco1
51	COC(CNC(=O)c1cc(C(=O)c2c(-c3c(Cl)cccc3Cl)noc2C)c[nH]1)OC
52	Cc1ccc(S(=O)(=O)Nc2ccccc2C=Nc2cccc(C)c2C)cc1
53	COC(=O)c1ccccc1NC(=O)CN(Cc1ccccc1)S(C)(=O)=O
54	O=C(CN(C1CCCCC1)S(=O)(=O)c1ccccc1)N1CCCC1
55	O=C(NCC(=O)N1CCN(c2cccc(Cl)c2)CC1)c1ccc(Br)o1
56	O=C(CSc1nnc(Cn2cnc3ccccc32)o1)Nc1cccc2ccccc12

entry no.	49	50	51	52	53	54	55	56
gsp antagonist	5%[15.4 µM]	-1%	3%	-18%	5%	-5%	-2%	-14%
gsp ag	-23%	-24%	9%	2%[15.4 µM]	-14%	-29%	-9%	-4%
CtBP-E1A inh	-1	1	-1	-5	1	4	6	3
D2 potentiator	-21	-17	-2	-4	1	-9	8	-1
D2 ag	-0.1	-3.6	0.4	-5.5	-1.9	-1.7	-3.3	-0.4
Six1-Eya2 inh	3	0	0	4	6	-3	-3	-1

57	COC(=O)c1ccccc1NC(=O)c1cc2ccccc2o1
58	Cc1csc(N2CCCC2c2nc3cc(C(F)(F)F)ccc3n2CCOCCO)n1 (stereo not drawn)
59	COc1ccc(C(C(=O)NCc2ccc(F)cc2)N(C(=O)c2csnn2)C2CC2)cc1 (stereo not drawn)
60	CCN(CC)CC(C(=O)N(CC)CC)P(=O)(c1ccccc1)c1ccccc1 (stereo not drawn)
61	CC(C)Cn1c(O)c2ccc(C(=O)N=NC(=O)c3cccnc3)cc2c1O
62	CCOC(=O)Nc1ccc2c(c1)N(CCCN(C)C)c1ccccc1CC2
63	CCOc1ccc(-n2c(-c3ccc(OC)cc3)c[n+]3c2CCCCC3)cc1
64	CC1Cn2c(nc(=O)c3c2NCN(CCc2ccccc2)C3)S1 (stereo not drawn)
65	Cn1c(SC/C=C/c2ccccc2)nnc1-c1cnccn1
66	Nn1c(Nc2ccccc2)nc2ccccc2c1=O

entry no.	57	58	59	60	61	62	63	64	65	66
gsp antagonist	-29%	-11%	-13%	8%	-4%	8%	-4%	11%	2%	4%
gsp ag	-37%[inhibitor]	48%	27%	16%	-33%	-13%	1%[15.4 µM]	9%	0%	5%
CtBP-E1A inh	2	3	3	1	-4	/	1	8	-2	2
D2 potentiator	-3	-13	-9	-5	-16	-82	-9	-6	-2	-28
D2 ag	-1.0	-0.9	-1.0	0.1	1.2	-1.3	-3.0	0.3	-2.2	-4.0
Six1-Eya2 inh	-4	-29	6	-2	7	-2	-10	-1	7	1
